High-throughput results: PubChem, National Center for Advancing Translational Sciences (NCATS)
AmpC inh no det – Promiscuous and Specific Inhibitors of AmpC Beta-Lactamase (assay without detergent). 71,000 compounds, 1.8% hits. P00811. AmpC nitrocefin hydrolysis, absorbance 480 nm, no detergent; potencies from a single point are estimates. AID 585, 2007. Potency, µM (doses to about 28.7 µM), for the others: top-dose activity change, negative = inhibition; active = falling curve, for most hits resting on a single point; inconclusive = weak or doubtful change; inactive = flat or rising curve; also: % of control where 0% means no effect; about half of the hits show no inhibition at the top dose; a quarter of the inactives give rising signals
Target sequence (P00811 whole entry, looked up): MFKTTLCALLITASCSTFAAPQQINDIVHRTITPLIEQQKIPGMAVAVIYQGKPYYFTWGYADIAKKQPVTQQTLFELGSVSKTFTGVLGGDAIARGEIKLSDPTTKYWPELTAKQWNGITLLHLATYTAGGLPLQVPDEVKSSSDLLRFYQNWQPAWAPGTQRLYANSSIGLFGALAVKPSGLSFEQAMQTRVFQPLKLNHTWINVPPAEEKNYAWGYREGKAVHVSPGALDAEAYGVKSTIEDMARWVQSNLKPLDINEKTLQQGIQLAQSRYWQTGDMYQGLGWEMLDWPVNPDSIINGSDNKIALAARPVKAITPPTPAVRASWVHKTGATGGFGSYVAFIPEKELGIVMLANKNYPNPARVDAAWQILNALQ
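AmpC in 20 mM phosphate buffer pH 7.0 was preincubated 15 min at room temperature with compounds. Nitrocefin (800 uM stock) was then added and hydrolysis followed at 480 nm every 20 s for 4 min.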
An asterisk follows results filed as active; ? = inconclusive; [ ] = another dose, or the depositor's remark. Potency is read from the fitted curve at half-maximal effect. Not all compounds are listed. The share of hits here may be higher or lower than overall.

Compound | AmpC inh no det
COc1ccc(C(=O)N2CCC[C@@]3(CCN(C(=O)Nc4cccc(C#N)c4)C3)C2)cc1 | 11%
Cc1ccc(C(=O)N2Cc3ccccc3CC2C(=O)O)cc1 (centres undefined) | -13%
NC(=O)C1CCN(CCCNC2CC(=O)N(Cc3ccc(N4CCCC4=O)cc3)C2=O)CC1 (centres undefined) | 20%
N#CC1=C(N)C2=C(N3CCCCC3)CCCC2C1(C#N)C#N (centres undefined) | -8%
CC(=O)Cn1c(C(F)(F)F)nc2ccccc21 | 11%
CN1/C(=C/C(=O)C2CCC2)Sc2ccccc21 | -8%
CCOC(=O)N1CCN(C(=O)c2c(O)c3cccc4c3n(c2=O)CC4)CC1 | -10%
Cc1nc(N[C@@H](Cc2c[nH]c3ccccc23)C(=O)O)c2oc3ccccc3c2n1 | -8%
CC(=O)N1CCC2(CCCN(C(=O)Nc3cccc(F)c3)C2)CC1 | 10%
Cn1c(=O)c2c(nc(CN3CCc4ccccc4C3)n2Cc2ccccc2)n(C)c1=O | 124%
O/N=C1\CC2(Cc3nonc31)OCCO2 | 3%
COC(=O)c1[nH]c2ccc(Br)cc2c1NC(=O)CN1CCN(C2CCCCC2)CC1 | 48%
COc1ccccc1N1CCN(C(CNS(=O)(=O)c2ccc(C)cc2)c2cccnc2)CC1 (centres undefined) | 109%
Clc1ccc(SCCCCn2ccnc2)cc1 | 19%
COc1cccc(C(=O)NCCn2ccc3ccccc32)c1 | -12%
Oc1ccc(-c2n[nH]c(=S)n2Cc2ccccc2)cc1 | -9%
C[C@H]1[C@H](C)CC[C@@]2(C(=O)O)CC[C@]3(C)C(=CC[C@@H]4[C@@]5(C)CC[C@H](O)C(C)(C)[C@@H]5CC[C@@]43C)[C@@H]12 | 1%
CC(C)[C@@H]1NC(=O)[C@H](CCCCN)NC(=O)[C@H](Cc2c[nH]c3ccccc23)NC(=O)[C@H](Cc2ccc(O)cc2)NC(=O)[C@H](C)N(C)C(=O)[C@H](Cc2ccccc2)NC1=O | 89%
NC(=O)Nc1n[nH]c(-c2ccccc2)n1 | -9%[5.75 µM]
COc1n[nH]c2nncnc12 | 4%
Cc1ccc(Nc2c3c(nc4ncnn24)CCC3)cc1 | 25%
COc1ccc(S(=O)(=O)Nc2nc(C(F)(F)F)cs2)cc1 | -12%
CN1CCN(C(=O)c2cc(-c3ccccc3)on2)CC1 | 7%
COC(=O)CSc1nc2cc(C)cc(C)c2cc1C#N | -8%
CCCC(=O)c1c(C)c2ccccc2n1C | -2%
CC(C)C(NS(=O)(=O)c1ccc2c(c1)oc(=O)n2C)C(=O)N1CCN(Cc2ccccc2)CC1 (centres undefined) | 31%
C[C@H](N=C(NC#N)Nc1ccncc1)C(C)(C)C | -3%
COc1ccc(C(=O)n2nc(-c3ccc(Cl)cc3)nc2N)cc1OC | 17%
COc1ccccc1NC(=O)CSc1ncn[nH]1 | -5%
CCCn1nc(C(=O)N2CC(=O)Nc3ccccc32)c2ccccc2c1=O | 4%
Cc1cccc(C2CC(c3ccc(Br)cc3)Nc3nc(N)nn32)c1 (centres undefined) | 81%
CC(C)(C)NC(=O)Cn1c(SCC(=O)NC2CCCCC2)nc2ccccc21 | 28%
COc1cc(NC(=O)C2CCN(S(=O)(=O)c3ccc(Cl)cc3)CC2)ccc1-n1cnnn1 | -12%
CCn1c(CNc2ccccc2Cl)nnc1SCC(=O)NCc1ccccc1 | 71%
COC(=O)c1cc(S(=O)(=O)N2CCOCC2)ccc1Sc1ccccc1N | 64%
COC(=O)CCCC(=O)O | -6%[5.75 µM]
Cn1c(=O)c2c(nc(CN3CCOCC3)n2Cc2ccccc2)n(C)c1=O | 36%
O=c1[nH]c(SCCOc2ccccc2)nc2ccccc12 | -6%
CCOc1ccc(NC(=O)CSc2nnc(Cc3cccn3C)n2-c2ccc(F)cc2)cc1 | 107%
COc1ccc(-c2cc(N3CCCC3)n3ncnc3n2)cc1 | 35%
CCn1c(=Nc2ccc(N3CCOCC3)cc2)ccc2ccccc21 | 7%
CS(=O)(=O)N1CCN(c2ccccc2NC(=O)c2cccs2)CC1 | 14%
CCC(C)(C(=O)NC1CCCC1)N(C(=O)c1ccccn1)c1ccccc1 (centres undefined) | 1%
CCOc1ccc(OCC)c(Nc2cc(C)nc3ncnn23)c1 | 44%
CCOc1cc2[nH]c(=S)n(CC3CCCN3CC)c(=O)c2cc1OCC (centres undefined) | 8%
O=C(CSC1=NCCS1)Nc1nc(-c2ccccc2)cs1 | ?
Cc1noc(C)c1C(=O)NCc1cccs1 | 2%
COc1ccc(-c2csc(Cc3nnc4n3CCCCC4)n2)cc1 | 38%
Cn1c(=O)oc2cc(S(=O)(=O)N3CCC4(CC3)OCCO4)ccc21 | -9%
CNc1ncnc2c1ncn2[C@@H]1O[C@@H](CO)[C@H](O)[C@@H]1O | -3%
CC(C)c1ccc(NC(=O)C2CCN(S(C)(=O)=O)CC2)cc1 | 8%
N#CC1(Nc2ccc(-c3ccc(NC4(C#N)CCCC4)cc3)cc2)CCCC1 | 0%[5.75 µM]
COc1ccc(C(=O)N2CCN(C(C)=O)CC2)cc1S(=O)(=O)NCc1ccc(Cl)cc1 | 19%
CCOC(=O)N1CCC(NC(=O)C2CCN(S(=O)(=O)N3CCCC3)CC2)CC1 | 5%
Cc1cc(OCCCCCNCCO)cc(C)c1Cl | 132%
COc1cc(OC)c(C(=O)COc2ncnc3ccccc23)c(OC)c1 | 14%
O=C(NCCc1cn2ccccc2n1)C1CCCCC1 | 10%
CCc1ccc2oc(=O)cc(CN(C)Cc3ccccc3)c2c1 | 17%
CCOC(=O)N1CCC(NC(=O)c2ccc(CS(=O)(=O)c3c(Cl)cccc3Cl)o2)CC1 | 95%
Cc1cc(C)nc(SCCn2c(N3CCCCC3)nc3c2c(=O)n(C)c(=O)n3C)n1 | 56%

Next structures
Compound | AmpC inh no det
CCN(CC)C(=O)CSc1nc(O)cc(=O)n1C | -7%
N#Cc1c(-c2ccc3c(c2)OCO3)csc1N | -8%
CN(C)C(=O)Cn1nc(-c2ccccc2)c2ccccc2c1=O | 11%
CC(C)Cn1c(CN2CCN(c3ccccc3F)CC2)nc2c1c(=O)[nH]c(=O)n2C | 10%
COc1cc(NC(=O)Cc2ccccc2)cc(OC)c1 | -5%
Cc1nc(NC2=NCN(C3CCCCC3C)CN2)nc2ccccc12 (centres undefined) | -14%
Cc1c(NC(=O)CCc2ccc(S(=O)(=O)N3CCOCC3)cc2)c(=O)n(-c2ccccc2)n1C | 34%
O=C(Cc1ccccc1)NCc1nc2ccccc2[nH]1 | -9%
O=c1[nH]cnc2scc(-c3cccs3)c12 | -10%
CCOC(=O)c1oc2ccc(S(=O)(=O)Nc3ccc4c(c3)n(C)c(=O)n4C)cc2c1C | 126%
CCOc1ccc(S(=O)(=O)N2CCc3ccccc3C2)cc1 | 2%
COC(=O)C1=CNC=C(C(=O)OC)C1c1cccc(OC)c1 | 99%
CC(=O)Nc1ccc(S(=O)(=O)NCCNC(=O)c2ccccc2F)cc1 | -13%
Cc1ccc(Cl)cc1N1CCN(S(=O)(=O)c2cnc[nH]2)CC1 | 1%
CCN(C(=O)c1cnc2scc(C)n2c1=O)c1ccccc1C | 14%
N#CCCCn1c(-c2ccccc2)noc1=O | 2%
CCOC(=O)c1[nH]c2ccc(F)cc2c1NC(=O)CN1CCN(C/C=C/c2ccccc2)CC1 | 64%
Cc1cc(C)n(S(=O)(=O)c2ccc(C(C)(C)C)cc2)n1 | 15%
COc1ccccc1-c1ccc(NC2CCCCC2)nn1 | -10%
O=C(c1cccc(N2CCCC2=O)c1)N1CCN(c2ccccc2)CC1 | 15%
COc1ccc(-c2nc(C#N)c(N3CCCCCC3)o2)cc1 | 40%
Cn1cc(-c2nc3cncnc3n(C3CC3)c2=O)c2ccccc21 | 18%
Cc1cc(C)nc(N2CCC(C(=O)N3CCN(c4cc(Cl)ccc4C)CC3)CC2)n1 | 133%
Cc1cccc(OCc2nnc(N)s2)c1 | 1%
Cc1oc(-c2ccccc2Cl)cc1-c1nn2c(-c3ccco3)nnc2s1 | 35%
Cc1cc(=O)oc2cc(OC(C)C(=O)Nc3nccs3)ccc12 (centres undefined) | -5%
Cc1nc(Sc2nnnn2C)c2c3c(sc2n1)CCC3 | 2%
CC(Sc1ccccc1)C(=O)Nc1cccc(N(C)S(C)(=O)=O)c1 (centres undefined) | 1%
CCOc1ccc(NC(=O)N(C2CCCCCC2)C2CCN(C(C)=O)CC2)cc1 | 81%
CCOC(=O)c1cnc(-n2nc(C)cc2C)nc1Nc1cccc(C(=O)O)c1 | -12%
C[C@@H](C(=O)Nc1ccc2ccccc2c1)[C@@H]1C[C@@]1(C)[C@@H](NC(=O)c1ccccc1)c1ccccc1 | -20%
COc1ccccc1-n1c(CNC(=O)c2ccco2)nnc1SCC(=O)Nc1cc(C)ccc1C | 47%
O=C1c2ccccc2C(=O)N1CCCP(=O)(O)CCc1ccccc1 | 6%
O=C(CCc1ccccc1)NCc1ccccn1 | 5%
CC(=O)OCc1c(F)c(F)c(-n2nc(C)cc2C)c(F)c1F | 16%
O=C(Nc1ccccc1)N1CCC(C(=O)N2CCN(S(=O)(=O)c3cccc(F)c3)CC2)CC1 | 41%
Cc1ccc(Cn2nnc3c(=O)n(Cc4cccc(C)c4)cnc32)cc1 | 16%
CC(NC(=O)COc1ccccc1)C(=O)OCC(=O)c1cc2ccccc2o1 (centres undefined) | 8%
CCCCCCCCCCCCCCCCCCOC[C@@H](COP(=O)([O-])OCC[N+](C)(C)C)OC | 17%
CCCN(Cc1cc2ccc(C)cc2[nH]c1=O)C(=O)c1cccnc1 | -6%
COc1ccc(S(=O)(=O)N2CCN(C)CC2)cc1Br | 6%
O=C(c1csnn1)N1CCC2(CC1)CCN(C(c1ccccc1)c1ccccc1)CC2 | 110%
COc1ccc(Cl)cc1NC(=O)CN1C(=O)CCS(=O)(=O)c2ccccc21 | 43%
COc1ccc2nc(SCC(=O)Nc3ccc(S(=O)(=O)N4CCCC4)cc3)c(C#N)cc2c1 | ?
CN(CC(=O)N1CCN(c2ccc(F)cc2)CC1)S(=O)(=O)c1ccc(F)cc1 | 57%
CN1CCCC2(CCN(C(=O)c3cccc(F)c3)CC2)C1 | 14%
COc1ccc(-c2nnc(SCC(=O)NC(C)c3ccccc3)o2)cc1 (centres undefined) | 31%
CCOc1ccccc1Cn1c(=O)oc2ccc(C)cc21 | 10%
CCc1nc2ccccc2c(C(=O)OCC(=O)Nc2ccc(S(=O)(=O)N3CCOCC3)cc2)c1C | 52%
COC(=O)[C@@]1(Cc2ccc(OC)cc2)[C@H]2c3cc(C(=O)N(C)C)[nH]c3C[C@H]2CN1C(=O)c1ccccc1 | 102%
O=C1CC(=O)CC(c2ccco2)C1 | -7%
CC1CN(S(=O)(=O)c2cccs2)CC(C)O1 (centres undefined) | 10%
Cc1nnc(SCC(=O)Nc2ccc3c(c2)OCCO3)n1CC1CCCO1 (centres undefined) | -2%
COc1ccc(CC(=O)N2CCN(C(=O)c3ccco3)CC2)cc1 | 0%
COc1ccc(CCn2c(-c3ccco3)nc3ccccc3c2=O)cc1OC | 134%
Cn1c(=O)[nH]c(=O)c2[nH]c(NCCCN3CCOCC3)nc21 | 2%
COC(=O)Cn1nc(-c2ccccc2)n(-c2ccccc2)c1=S | 20%
COc1ccc(Oc2ncc3nc(C)c(=O)n(Cc4ccc(F)cc4)c3n2)cc1 | 103%
COc1ccccc1CNc1ccnc(-c2ccc(N(C)C)cc2)n1 | 51%
CC1CCCN(C(=O)CSc2nnc3n(C4CCCC4)c(=O)c4ccccc4n23)C1 (centres undefined) | 71%

Among those listed so far, two contain a CF3 group.
Compound | AmpC inh no det
CC(=O)Cn1c(C(F)(F)F)nc2ccccc21 | 11%
COc1ccc(S(=O)(=O)Nc2nc(C(F)(F)F)cs2)cc1 | -12%

Other records
Compound | AmpC inh no det
CCOc1ccc(N(C(C)C(=O)NC2CCCCCC2)S(C)(=O)=O)cc1 (centres undefined) | 59%
CN1CCN(C(=O)N2CCNC2=O)CC1 | -8%
CCC(Sc1nc(=O)cc(N)n1-c1cccc(C)c1)C(=O)Nc1cc(C)on1 (centres undefined) | 28%
O=C(c1cc2c(s1)CCCCCC2)N1CCC2(CC1)OCCO2 | 75%
Cc1ccc(Sc2oc(/C=N/n3cnnc3)cc2Br)cc1 | 24%
CC(C)c1ccccc1NC(=O)c1cccnc1 | 7%
CC(Sc1nc2ccccc2s1)C(=O)N1CCOCC1 (centres undefined) | 6%
Cn1c(=O)c2c(nc(OCC3COC(C)(C)O3)n2Cc2ccccc2F)n(C)c1=O (centres undefined) | 78%
O=C(N1CCOCC1)N1CCC(n2nnc3cc(F)ccc32)CC1 | 5%
C/C(NCC(C)(C)CN(C)C)=C(/C#N)C(=O)NCc1ccccc1 | 12%
c1nc(N2CCC3(CC2)OCCO3)c2c3c(sc2n1)CCCC3 | 121%
COc1ccc(CNC(=O)c2cc3c(=O)n4ccccc4nc3n(Cc3ccco3)c2=N)cc1 | 32%
O=C(O)C1CCN(C(=O)c2scc3c2OCCO3)CC1 | -4%
O=C(CCn1c(=O)c2sccc2n(CC(=O)OCc2ccccc2)c1=O)NCc1ccco1 | 6%
